Cruzain Triton: cruzain (T. cruzi) inhibition with detergent; P25779; purified cruzain, Z-FR-AMC fluorescence, 0.01% Triton; Potency, µM, without a hit: max response, negative = inhibition, most hits filed as inhibitors; 200,000 tested, 0.43% active; AID 1478; active = well fitted curve in the direction sought with a large enough effect; inconclusive = small, poorly fitted or top-dose-only effect, or another doubt; inactive = no such curve, though single readings can be large; an effect the other way counts as inactive or inconclusive;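 note: plate controls were neutral wells for no effect and buffer without enzyme for full effect; nearly all actives have a fitted effect of over 40% in size; top concentration of the series not given in the record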
Target sequence (P25779 123-467 limits assumed): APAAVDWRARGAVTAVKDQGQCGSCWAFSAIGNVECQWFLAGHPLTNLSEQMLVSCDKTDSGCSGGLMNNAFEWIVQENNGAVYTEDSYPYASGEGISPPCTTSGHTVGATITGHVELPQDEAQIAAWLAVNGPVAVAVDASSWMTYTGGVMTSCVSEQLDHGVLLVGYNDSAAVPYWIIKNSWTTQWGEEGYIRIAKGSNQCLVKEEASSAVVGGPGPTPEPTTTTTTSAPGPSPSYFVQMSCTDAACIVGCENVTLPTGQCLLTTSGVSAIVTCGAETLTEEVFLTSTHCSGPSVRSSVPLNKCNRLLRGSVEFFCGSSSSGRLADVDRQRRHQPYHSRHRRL
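Sodium acetate buffer (100 mM, pH 5.5) containing 5 mM DTT and 0.01% Triton X-100 hosted 1.5 nM cruzain and test compound for 15 min at room temperature. Cleavage of 2 uM Z-FR-AMC was then tracked by fluorescence.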
Marburg entry inh: inhibitors of Marburg virus binding or cell entry. Marburg virus pseudotyped entry inhibition, cell reporter; control for the full effect not named in the record; about a third of the inactives were read at about 46 µM. Potency, µM (series often up to 37.8 µM), for the others: at the top dose activity change, negative = inhibition, usual class: inhibitors. 300,000 tested, 1.8% active; active = well fitted inhibition curve with a large enough effect; inconclusive = small, poorly fitted or top-dose-only effect, or effect the other way; inactive = flat fitted curve, though single readings scatter; tested in HEK293 cells; about a fifth of its hits are not listed in these tables; note: % is set by controls: 0 for no effect and ±100 for the full control effect; luciferase read-out
Lassa entry inh: inhibitors of Lassa virus binding or cell entry; Lassa virus pseudotype entry inhibition, cell reporter; control for the full effect not named in the record; Potency, µM (highest dose often 37.9 µM), for inactives: at the highest dose activity change, negative = inhibition, hits mostly inhibitors; 300,000 tested, 1.2% active; active means well fitted inhibition curve with a large enough effect; inconclusive means small, poorly fitted or top-dose-only effect, or effect the other way; inactive means flat fitted curve, though single readings scatter; tested in HEK293 cells; note: % is set by controls: 0 for no effect and ±100 for the full control effect; nearly all actives have a fitted effect of over 50% in size; luciferase read-out
StopGo reporter: FMDV 2A StopGo reporter, luciferase signal | 410,000 tested, 1.2% active | Potency, µM (top dose mostly 57.9 µM), inactives show at the top dose signal change, negative = less light | human cells with a luciferase reporter of 2A StopGo recoding; control for the full effect not named in the record; active = well fitted falling curve with a large enough effect; inconclusive = small, poorly fitted or top-dose-only effect; inactive = no such curve, though single readings can be large or run the other way; tested in HEK293T cells; note: % is set by controls: 0 for no effect and ±100 for the full control effect; nearly all actives have a fitted effect of over 45% in size; luciferase light after 4 h
SARS PLpro yeast: blocks SARS-CoV papain-like protease in a yeast assay | Potency, µM (highest dose often 32.9 µM), without a hit: at the highest dose activity, positive = growth rescue | 330,000 tested, 0.19% active | S. cerevisiae expressing SARS-CoV PLpro, growth rescue; control for the full effect not named in the record; note: 0% is about no effect; nearly all actives have a fitted effect of over 55% in size; growth read by luminescence after 48 h
Cruzain inh noDet: blocks cruzain activity in detergent-free assay. Potency, µM, inactives show max response, negative = inhibition, usual class: inhibitors. purified cruzain, Z-FR-AMC fluorescence, no detergent. 200,000 tested, 2.3% active. AID 1476. P25779; active = well fitted curve in the direction sought with a large enough effect; inconclusive = small, poorly fitted or top-dose-only effect, or another doubt; inactive = no such curve, though single readings can be large; an effect the other way counts as inactive or inconclusive;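 note: plate controls were enzyme without inhibitor for no effect and buffer without enzyme for full effect; nearly all actives have a fitted effect of over 40% in size; top concentration of the series not given in the record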
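Detergent-free condition (0.00005% Triton X-100) in acetate buffer pH 5.5 with DTT. 1.5 nM enzyme and compound were pre-mixed 15 min, then 2 uM Z-FR-AMC substrate added; reaction progress from fluorescence change between first and third reads (60 s).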
RE007 growth inh: less growth of the S. pombe RE007 Vpr strain; S. pombe RE007 Vpr strain, BacTiter-Glo ATP luminescence, 24 h; control for the full effect not named in the record; Potency, µM (titrated, usually from 92.2 µM), for the others: at the top dose activity change, negative = less growth; 360,000 tested, 0.21% active; AID 651644; active = well fitted falling curve with a large enough effect; inconclusive = small, poorly fitted or top-dose-only effect; inactive = no such curve, though single readings can be large or run the other way;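 note: % is set by controls: 0 for no effect and ±100 for the full control effect; nearly all actives have a fitted effect of over 50% in size; the assay follows cell death caused by Vpr and the record does not say whether a fall means rescue or toxicity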
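Fission yeast strain RE007, carrying one chromosomally integrated HIV-1 vpr copy, was seeded at OD 0.01 in PMG+AL medium with 23 nL pinned compound. After 24 h at 30 °C and 99% humidity, viability was read by BacTiter-Glo luminescence.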
NS1 function inh: blocks influenza NS1 protein function | S. cerevisiae slowed by influenza A NS1, growth recovery by OD600 | Potency, µM (titrated, usually from 46.1 µM), for the others: top-dose activity, positive = more growth | 270,000 tested, 0.4% active; note: actives are rising curves; nearly all actives have a fitted effect of over 50% in size
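Compounds were scored for reversing the slow growth caused by influenza A NS1 in S. cerevisiae, measured by optical density at 600 nm. Assay medium contained 2% galactose at pH 6.0; NS1-free yeast of the same strain were the positive control.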
The depositor's hits bear a star; ? = inconclusive; · = not tested or not shown; [ ] = remark or other dose. Unless noted, calls come from the whole dose curve; as a rule, active means well fitted rising curve with a large enough effect; inconclusive means small, poorly fitted or top-dose-only effect; inactive means no such curve, though single readings can be large or run the other way. Potency is the fitted concentration of half-maximal effect. Hits appear at their usual frequency. Share with any hit: about 4.7%.

SMILES | Cruzain Triton | Marburg entry inh | Lassa entry inh | StopGo reporter | SARS PLpro yeast | Cruzain inh noDet | RE007 growth inh | NS1 function inh
COc1ccccc1NC(=S)N1CCN(c2nc(-c3ccccc3)cs2)CC1 | · | 0%[46.1 µM] | 1% | -29% | -2% | · | -2% | 10%
CCOc1ncccc1C(=O)OCC(=O)N1CC(=O)Nc2ccccc21 | 1.2% | -5% | 3% | -20% | -1% | ? | 2% | 3%
Nc1c(N(Cc2ccccc2)C(=O)CCc2ccccc2)c(=O)[nH]c(=O)n1Cc1ccccc1 | · | -1% | ? | -2% | 7% | · | -15% | ·
COc1ccc(NC(=O)CSc2n[nH]c(-c3ccccn3)n2)cc1 | · | ? | · | 4% | -1% | · | 20% | 4%
N#Cc1c(Nc2ccccc2)c(C=O)c[nH]c1=O | · | 11%[46.1 µM] | 1%[46.1 µM] | -4% | 1% | · | 6% | 4%
Cc1ccc(C(=O)CCC(=O)N(C)CC(=O)Nc2ccccc2Br)cc1 | · | 17% | -8% | -11% | 7% | · | 17% | 7%
CCCOCC(O)CCc1n[nH]c(=S)n1-c1ccccc1 (stereo not drawn) | · | ? | 1% | 7% | 0% | · | -5% | -2%
O=C(/C=C/c1cccc(Cl)c1)NCCc1ccccc1 | -6.9% | -2% | 25% | 27% | -62% | 0% | 9% | -17%
Cc1cc2[nH]c3ccccc3c2cn1 | · | 1% | 28% | 15% | 3% | · | 3% | 14%
CCC(Sc1nc(-c2ccccc2)cc(=O)[nH]1)C(=O)O (stereo not drawn) | -1.1% | 4% | -13% | 1% | 7% | -19% | -1% | 0%
CCC(=O)Nc1nc2ccc(NC(=O)COc3ccccc3)cc2s1 | · | ? | 0%[46.1 µM] | 3% | -3% | · | 1% | 14%
CN(C)CCC(=O)c1cccc(Br)c1 | · | · | · | -28% | -4% | · | ? | -5%
CC1CCN(C(=O)CCC(=O)Nc2nnc(C3CCCCC3)s2)CC1 | · | · | · | 3% | 1% | · | 1% | -2%
COc1ccc(C(=O)/C=C(\C)Nc2ccc(NC(C)=O)cc2)cc1 | -1.4% | 26% | 3% | · | 12% | 5% | 0% | -13%
O=C(O)c1cc([N+](=O)[O-])ccc1N1CCCCC1 | -9.0% | 0% | 10% | -13% | 8% | 14% | -5% | 3%
CC1(c2ccc(Cl)cc2Cl)NC(=O)N(CC(=O)Nc2cccnc2Cl)C1=O (stereo not drawn) | · | 20% | 1% | -17% | 1% | · | -12% | ·
O=C(O)c1cncc(C#Cc2ccccc2)c1 | · | 20%[46.1 µM] | 9%[46.1 µM] | 15% | 0% | · | -5% | -37%
CC1=C(Cl)C2=NS(=O)(=O)CCN2C=C1Cl | · | -3%[46.1 µM] | 39% | -9% | 1% | · | 10% | ·
CCOc1cc(/C=N\NC(N)=O)cc(Br)c1OC(C)C | -2.3% | 3% | ? | -22% | 16% | -11% | -1% | 6%
COc1ccc(S(=O)(=O)Nc2nc3ccccc3nc2NCc2ccc3c(c2)OCO3)cc1 | -0.9% | ? | -1% | 28% | 15% | ? | -2% | -1%
Cc1ccc(N2CCN(c3ccc(NC(=O)CCC(=O)O)cc3)CC2)cc1 | 0.6% | 8% | ? | -16% | -1% | 2% | · | 7%
Cc1c(NC(=O)C(=O)N/N=C/c2cccs2)c(=O)n(-c2ccccc2)n1C | · | ? | 22% | 4% | 1% | · | 9% | -1%
CCc1cc2c(N3CCN(c4nnc(CC)s4)CC3)ncnc2s1 | -3.6% | ? | ? | ? | -12% | 6% | -4% | -46%
Cc1cccc(-n2nc(C(=O)c3ccco3)cc(-c3nc4ccccc4[nH]3)c2=N)c1 | -7.8% | -7% | -3% | -29% | 3% | ? | -21% | 12%
O=C(NC(Cc1ccccc1)C(=O)O)/C(=C/c1ccccc1)NC(=O)c1ccc(Br)o1 (stereo not drawn) | · | -3%[46.1 µM] | 0%[46.1 µM] | 34%[activator] | 1% | · | 19% | 15%

Profiles as entered above:
CCOc1cc(/C=N\NC(N)=O)cc(Br)c1OC(C)C reads Cruzain Triton: -2.3%; Marburg entry inh: 3%; Lassa entry inh: ?; StopGo reporter: -22%; SARS PLpro yeast: 16%; Cruzain inh noDet: -11%; RE007 growth inh: -1%; NS1 function inh: 6%
CCC(=O)Nc1nc2ccc(NC(=O)COc3ccccc3)cc2s1 reads Cruzain Triton: ·; Marburg entry inh: ?; Lassa entry inh: 0%[46.1 µM]; StopGo reporter: 3%; SARS PLpro yeast: -3%; Cruzain inh noDet: ·; RE007 growth inh: 1%; NS1 function inh: 14%

(cont.)
SMILES | Cruzain Triton | Marburg entry inh | Lassa entry inh | StopGo reporter | SARS PLpro yeast | Cruzain inh noDet | RE007 growth inh | NS1 function inh
O=C(/C=C/c1ccc(F)cc1)NC(=S)N1CCCCC1c1cccnc1 (stereo not drawn) | · | 8%[46.1 µM] | 14% | 14% | 1% | · | -9% | 7%
Cc1nn2c(=O)cc(COC(=O)c3cccc(NC(=O)CCc4ccccc4)c3)nc2s1 | -2.9% | · | 11%[46.1 µM] | 3% | · | ? | · | ·
N#C/C(C(=O)c1ccccc1)=C1/SC=C(N)N1c1ccccc1 | -22% | · | · | · | 0% | ? | · | -32%
COc1ccccc1C(=O)N/N=C(\C)CC(=O)Nc1ccc(Nc2ccccc2)cc1 | · | -7%[46.1 µM] | · | 21% | -4% | · | -13% | -3%
CC(=O)NC(=S)Nc1sc2c(c1C#N)CCCCC2 | -12% | ? | ? | 0% | -42% | ? | -4% | 19%
OCCNc1nc(Nc2ccc(Br)cc2)nc2ccccc12 | · | ? | -17% | -2% | -9% | · | -1% | ·
CCOC(=O)C1(Cc2ccccc2C)CCCN(S(=O)(=O)CC)C1 (stereo not drawn) | · | · | · | -18% | -9% | · | -19% | -15%
CN(c1ccc(C(=O)Nc2ccccc2Sc2ccccc2)cc1)S(C)(=O)=O | -1.5% | ? | ? | ? | -7% | ? | 4% | -8%
O=C(NN1CC(C(=O)OCc2ccccc2F)CC1=O)c1ccccc1 (stereo not drawn) | · | -21%[46.1 µM] | 10%[46.1 µM] | 2% | -4% | · | 3% | 10%
CCC1Sc2ccc(S(=O)(=O)Nc3ccc(OC)cc3)cc2NC1=O (stereo not drawn) | · | · | · | 1% | 5% | · | 1% | 4%
COc1ccc(S(=O)(=O)N2CCCC(C(=O)NCc3ccco3)C2)cc1OC (stereo not drawn) | · | -12%[46.1 µM] | -12% | -20% | · | · | -10% | 25%
COc1ccccc1N1CCN(CCCN2CC(=O)N3CCCCC3C2=O)CC1 (stereo not drawn) | · | -7%[46.1 µM] | -4%[46.1 µM] | 2% | · | · | 4% | ·
CCc1ccccc1NC(=O)C1CCN(c2nc3ccccc3[nH]2)CC1 | 2.3% | · | -3%[46.1 µM] | -8% | · | 4% | · | ·
CC(=O)Nc1ccc(-n2nnnc2SCC(=O)Nc2cccc(NC(=O)c3ccco3)c2)cc1 | · | · | · | -2% | 0% | · | -5% | 3%
O=C(CN1C(=O)/C(=C/c2ccccc2F)Sc2ccccc21)NCC1CCCO1 (stereo not drawn) | · | · | · | -16% | 1% | · | 0% | -12%
CCc1nn(CC(=O)NCc2ccc(C)cc2)c(=O)c2cc3occc3n12 | -1.2% | -29%[46.1 µM] | 27%[46.1 µM] | -19% | · | 7% | · | ·
O=C(Nc1ccc2nc(SCC(=O)N3CCc4ccccc43)sc2c1)c1ccccc1F | -1.8% | -3%[46.1 µM] | 9%[46.1 µM] | -11% | · | -4% | · | ·
O=C(/C=C/c1ccc(Cl)c(Cl)c1)NCc1ccco1 | -9.3% | 17% | ? | 19% | -44% | -13% | 0% | -37%
Cc1ccc(Cl)cc1NC(=O)c1cccc(NC(=O)N2CCSc3ncccc32)c1 | -8.6% | · | 0%[46.1 µM] | ? | · | 1% | · | ·
COC(=O)/C(C#N)=C/N(C)C | · | 3%[46.1 µM] | 2%[46.1 µM] | 9% | 0% | · | -16% | -5%
O=C(COC(=O)c1c(Cl)ccc(Cl)c1Cl)NC1CCS(=O)(=O)C1 (stereo not drawn) | · | 22%[46.1 µM] | 12% | -4% | -1% | · | -5% | ·
COc1cc(-c2c(NC(=O)c3ccco3)oc3ccccc3c2=O)cc(OC)c1OC | · | · | · | -19% | 10% | · | -2% | ?
COc1ccc(S(=O)(=O)N2CCC(C(=O)N[C@H](C(=O)N3CCCCCC3)C(C)C)CC2)cc1 | · | 21%[46.1 µM] | -25%[46.1 µM] | 3% | -4% | · | -1% | -1%

Some values from above.
Cc1ccc(Cl)cc1NC(=O)c1cccc(NC(=O)N2CCSc3ncccc32)c1 in Lassa entry inh is listed with 0%[46.1 µM]
O=C(O)c1cncc(C#Cc2ccccc2)c1 in Lassa entry inh is listed with 9%[46.1 µM]
Cc1cc2[nH]c3ccccc3c2cn1 in StopGo reporter is listed with 15%
CC(=O)Nc1ccc(-n2nnnc2SCC(=O)Nc2cccc(NC(=O)c3ccco3)c2)cc1 in NS1 function inh is listed with 3%
COc1ccc(S(=O)(=O)N2CCCC(C(=O)NCc3ccco3)C2)cc1OC (stereo not drawn) in StopGo reporter is listed with -20%
Cc1ccc(N2CCN(c3ccc(NC(=O)CCC(=O)O)cc3)CC2)cc1 in SARS PLpro yeast is listed with -1%

From PubChem
